Assay outcomes deposited in PubChem by Broad Institute.
PD-1 reversal: activators reversing PD-1 mediated T-cell inhibition, primary screen, luminescence, primary human CD4 T cells, PD-L1 beads. activation, % (concentration not given with the values). CellTiter-Glo 96 h. 29,000 tested, under 10 active;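 active = replicate mean of 50% or more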;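 also: 0% = median vehicle wells and 100% = positive control; 100 nL library stock added to about 50 µL; numbers are from one replicate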
Hedgehog inh: Hedgehog pathway signaling inhibitors, primary screen, luminescence, Shh-LIGHT2 cells, Gli-luciferase; Shh-LIGHT2 Gli-luciferase reporter, 30 h; 22,000 tested, 2.1% active; inhibition, % (no concentration beside the values);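 active = replicate mean of 65% or more; inconclusive = mean lower but half the replicates past it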;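 also: pathway switched on by Shh-conditioned medium diluted 1 in 25 in low serum; 100 nL library stock added to about 40 µL; 0% = median of neutral wells and 100% = positive control level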
YB-1 expr inh: inhibitors of YB-1 gene expression, primary screen, cell-based, fluorescence | 30,000 tested, 0.37% active | delta delta Cp (YB-1 minus CDIP) (concentration not given with the values) | U2OS, qRT-PCR YB-1 vs CDIP delta delta Cp, 16 h; active compounds read high; zero = DMSO, each unit about twofold;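 active = delta delta Cp rounded down to an integer at or above 3, about 3 SD of DMSO wells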;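 also: higher means less YB-1 transcript or more CDIP transcript relative to DMSO; stock transfer was 100 nL into about 100 µL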
MITF inhib: inhibitors of MITF, primary screen, MITF inhibitor project, cell-based, luminescence. TRPM1 promoter luciferase, 24 h. inhibition, % (test concentration not listed). 37,000 tested, 0.28% active. AID 2240, 2010;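 active = most replicates at 85% or more, or half of them and the mean; inconclusive = half reach 85% but not the mean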;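 also: human melanocyte line stably carrying TRPM1 promoter luciferase reporter; 0% = vehicle wells and 100% = a positive control; the first replicate is given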
* hit, by the source's call; ? = inconclusive; nt = not tested or not shown. Some of the compounds tested (hit frequency here may not be typical).

SMILES	PD-1 reversal	Hedgehog inh	YB-1 expr inh	MITF inhib
C[C@@H]1CN([C@@H](C)CO)C(=O)c2cc(NC(=O)Cc3cn(C)c4ccccc34)ccc2O[C@@H]1CN(C)S(=O)(=O)c1cccs1	-2.1	21.2	0.294	5.7
COC(=O)COc1ccc(NC(=O)c2ccc(NC(C)=O)cc2)cc1	-5.4	nt	nt	-8.3
C[C@@H]1CN([C@H](C)CO)C(=O)Cc2cc(NC(=O)C3CC3)ccc2O[C@@H]1CN(C)CC1CCCCC1	0.7	18.8	0.461	-19.5
C[C@H]1CN([C@@H](C)CO)C(=O)Cc2cc(NC(=O)Cc3ccccc3)ccc2O[C@H]1CN(C)C(=O)Nc1ccc(C(F)(F)F)cc1	-1.1	?	-0.345	0.2
C[C@@H]1CCCCO[C@H](CN(C)C(=O)Cc2ccccc2)[C@@H](C)CN([C@H](C)CO)C(=O)c2cc(NC(=O)c3ccccc3)ccc2O1	0.6	-37.7	0.324	8.9
Cc1ccc(S(=O)(=O)N(C)C[C@H]2Oc3ccc(NC(=O)Cc4ccccc4)cc3C(=O)N([C@@H](C)CO)C[C@H]2C)cc1	-2.5	nt	-0.194	3.2
CCn1cc(CN(C)C(=S)Nc2sc3c(c2C(=O)OC)CCC(C)C3)c(C)n1 (configuration not stated)	-1.5	nt	nt	53.4
O=C(CSc1nnnn1-c1ccc(O)cc1)Nc1ccc(F)cc1	1.6	nt	nt	-7.3
C[C@@H]1CN([C@H](C)CO)C(=O)c2cc(N(C)C)ccc2O[C@@H]1CN(C)S(=O)(=O)c1ccc(F)cc1	1.8	nt	-0.0248	-7.9
Brc1ccccc1OCc1nc2ccccc2[nH]1	-0.9	-178.7	-0.172	65.8
COC(=O)C[C@H]1C(C)(C)C(=O)[C@@H]2CC3=C4CC(=O)O[C@@H](c5ccoc5)[C@]4(C)CCC3[C@@]1(C)C2=O (some centres not stated)	nt	-15.5	0.161	1.0
Cc1ccc(S(=O)(=O)N2CCCC(C(=O)NCc3ccccn3)C2)cc1 (configuration not stated)	-0.1	nt	nt	-5.2
C[C@@H]1CN([C@@H](C)CO)C(=O)c2cccc(NS(=O)(=O)c3ccc(F)cc3)c2O[C@@H]1CN(C)C(=O)Nc1ccc(C(F)(F)F)cc1	-0.8	4.9	-0.658	28.6
O=C(CCN1C(=O)c2ccccc2C1=O)Nc1ccc(-c2nc3ccccc3[nH]2)cc1	-0.5	nt	nt	-17.7
COc1cc(C)c2c(c1C=O)Oc1c(c(C)c(O)c3c1C(O)OC3=O)OC2=O (configuration not stated)	nt	-2.3	-0.383	-7.5
C[C@@H]1CN([C@@H](C)CO)C(=O)c2cc(NC(=O)Nc3ccc(C(F)(F)F)cc3)ccc2O[C@@H]1CN(C)C(=O)Nc1ccccc1	nt	6.4	-0.197	50.3
CC(=O)[C@H]1[C@H](C#N)C[C@H]2[C@@H]3CC=C4C[C@@H](O)CC[C@]4(C)[C@H]3CC[C@@]21C	-3.6	-58.4	0.143	-11.8
COc1ccc(S(=O)(=O)Nc2cccc3c2O[C@H](CN(C)Cc2ccncc2)[C@H](C)CN([C@H](C)CO)C3=O)cc1	2.0	6.7	-0.664	7.7
COc1ccc(NC(=O)c2ccc(Cn3cc(Br)cn3)cc2)cc1OC	1.4	nt	nt	-26.2
C[C@@H]1CCCCO[C@@H](CN(C)Cc2ccncc2)[C@@H](C)CN([C@H](C)CO)C(=O)c2cc(N(C)C)ccc2O1	0.6	nt	0.00462	-3.1
Cc1ccc(S(=O)(=O)N(C)C[C@H]2OCCCC[C@@H](C)Oc3ccc(NS(=O)(=O)c4ccc(Cl)cc4)cc3C(=O)N([C@H](C)CO)C[C@@H]2C)cc1	nt	nt	0.0379	44.6
C[C@@H]1CCCCO[C@H](CN(C)CC2CCCCC2)[C@@H](C)CN([C@H](C)CO)C(=O)c2cc(NS(=O)(=O)c3cccs3)ccc2O1	-3.1	-37.6	-0.435	-6.4
CC1(C)Oc2ccc(C#N)cc2[C@@H](OC2=CC(=O)CC2)[C@@H]1O	nt	-7.8	0.226	-2.7
CCOc1cc(C)c(S(=O)(=O)NCc2cccnc2)cc1C	0.9	nt	nt	6.5
C[C@H](CO)N1C[C@H](C)[C@H](CN(C)Cc2ccncc2)Oc2ccc(NS(=O)(=O)c3ccc(F)cc3)cc2C1=O	nt	nt	-0.281	-6.0

A portion from further up, for reference:
SMILES	PD-1 reversal	Hedgehog inh	YB-1 expr inh	MITF inhib
C[C@@H]1CN([C@@H](C)CO)C(=O)c2cc(NC(=O)Cc3cn(C)c4ccccc34)ccc2O[C@@H]1CN(C)S(=O)(=O)c1cccs1	-2.1	21.2	0.294	5.7
COC(=O)COc1ccc(NC(=O)c2ccc(NC(C)=O)cc2)cc1	-5.4	nt	nt	-8.3
C[C@@H]1CN([C@H](C)CO)C(=O)Cc2cc(NC(=O)C3CC3)ccc2O[C@@H]1CN(C)CC1CCCCC1	0.7	18.8	0.461	-19.5
C[C@H]1CN([C@@H](C)CO)C(=O)Cc2cc(NC(=O)Cc3ccccc3)ccc2O[C@H]1CN(C)C(=O)Nc1ccc(C(F)(F)F)cc1	-1.1	?	-0.345	0.2

New compounds follow:
SMILES	PD-1 reversal	Hedgehog inh	YB-1 expr inh	MITF inhib
CS(=O)CCC(NS(=O)(=O)c1ccccc1)C(=O)O (configuration not stated)	3.9	nt	nt	6.8
COc1cc(NC(=O)CN(C)S(=O)(=O)c2ccc3ccccc3c2)cc(OC)c1	1.0	nt	nt	10.8
CCOC(=O)CSc1nc(C)cc(=O)[nH]1	1.9	nt	nt	-40.1
Cc1noc(C)c1NC(=O)N(C)C[C@H]1Oc2ccc(NC(=O)Nc3ccc(C(F)(F)F)cc3)cc2C(=O)N([C@H](C)CO)C[C@@H]1C	-0.6	-9.1	0.121	2.4
C[C@@H]1CN([C@H](C)CO)C(=O)c2cc(NS(=O)(=O)c3cccs3)ccc2O[C@H]1CN(C)C(=O)Nc1cccc2ccccc12	0.8	-22.7	0.445	3.0
O=C(NCc1ccco1)C1CCCN(S(=O)(=O)c2ccccc2)C1 (configuration not stated)	4.7	nt	nt	-18.0
C[C@H](CO)N1C[C@H](C)[C@@H](CN(C)S(=O)(=O)c2cccs2)Oc2ccc(NC(=O)NC3CCCCC3)cc2C1=O	1.8	-0.9	-0.132	9.4
Cn1c(SCc2nc(-c3cccs3)no2)nnc1-c1ccccc1	0.3	nt	nt	-8.4
C[C@@H]1CN([C@@H](C)CO)C(=O)c2cc(NC(=O)Nc3ccc4c(c3)OCO4)ccc2O[C@H]1CN(C)CC1CCCCC1	nt	nt	-0.12	3.4
C[C@H]1CN([C@@H](C)CO)C(=O)Cc2cc(NC(=O)Nc3ccc(C(F)(F)F)cc3)ccc2O[C@@H]1CN(C)Cc1ccc(Oc2ccccc2)cc1	nt	-26.9	-0.247	0.7
O=C1C[C@H](c2ccccc2)Oc2c(Cc3ccccc3O)c(O)cc(O)c21	-1.1	-25.5	-0.561	92.3*
Cn1c(CN2CCOCC2)nnc1SCC(=O)Nc1ccccc1Br	2.4	nt	nt	-6.8
C[C@H]1CN([C@@H](C)CO)C(=O)c2cccc(NC(=O)Nc3ccc(F)cc3)c2O[C@H]1CN(C)C(=O)Nc1ccc2c(c1)OCO2	0.1	-9.7	0.0538	1.8
Cc1noc(C)c1NC(=O)N(C)C[C@H]1Oc2ccc(NC(=O)c3ccncc3)cc2CC(=O)N([C@H](C)CO)C[C@H]1C	2.0	0.2	-0.198	-3.8
CCC[C@@H]1C[C@@H](C(=O)N[C@@H]([C@H]2O[C@H](SC)[C@H](O)[C@@H](O)[C@@H]2O)[C@@H](C)O)N(C)C1	nt	-38.5	-0.24	-21.2
COc1ccc(S(=O)(=O)N(CC(=O)Nc2ccccc2F)C2CCCCC2)cc1Cl	-0.1	nt	nt	30.2
Cc1ccc(S(=O)(=O)N(C)C[C@@H]2Oc3ccc(NC(=O)NC4CCCCC4)cc3C(=O)N([C@@H](C)CO)C[C@@H]2C)cc1	nt	-6.9	0.142	7.6
CC(C)(C)C(=O)Nc1ccccc1C(=O)NCc1cccnc1	-0.1	-12.1	-0.0278	-11.1
C[C@H]1CN([C@@H](C)CO)C(=O)Cc2cc(N(C)C)ccc2O[C@H]1CN(C)S(=O)(=O)c1ccc(F)cc1	0.2	-5.9	0.416	-6.3
Cc1noc(C)c1NC(=O)Nc1ccc2c(c1)CC(=O)N([C@@H](C)CO)C[C@@H](C)[C@@H](CN(C)Cc1ccc(C(=O)O)cc1)O2	0.4	nt	-0.227	-7.9
C=C(CCCCCCCC(=O)O)C(=O)O	0.0	6.0	-0.308	-9.0
CC(C)NC(=O)Nc1ccc2c(c1)CC(=O)N([C@H](C)CO)C[C@@H](C)[C@@H](CN(C)S(=O)(=O)c1cn(C)cn1)O2	nt	3.2	-0.148	-5.5
Cc1ccc(-c2csc3ncnc(SCC(=O)Nc4ccc(N(C)C)cc4)c23)cc1	-0.1	nt	nt	40.8
C[C@@H]1CN([C@@H](C)CO)C(=O)c2cccc(NC(=O)C3CCOCC3)c2O[C@H]1CN(C)CC1CC1	-0.6	-8.6	0.31	-9.0
Cc1ccc(S(=O)(=O)N(C)C[C@@H]2Oc3ccc(NC(=O)Cc4cn(C)c5ccccc45)cc3CC(=O)N([C@H](C)CO)C[C@@H]2C)cc1	-0.3	?	-0.239	32.8
Further results follow.
SMILES	PD-1 reversal	Hedgehog inh	YB-1 expr inh	MITF inhib
COC(=O)c1cccc(C(=O)Nc2ccc(F)cc2)n1	1.2	nt	0.437	1.4
Cc1nc(-c2nnc(-c3ccccc3)o2)c(C(F)(F)F)o1	-0.1	-21.5	-0.0414	-29.0
COc1ccc(C)cc1NC(=O)C(C)NS(=O)(=O)c1ccc(Cl)cc1 (configuration not stated)	-1.7	nt	nt	1.0
COc1ccc(S(=O)(=O)N(C)C[C@H]2Oc3ccc(NC(=O)Nc4ccc(C(F)(F)F)cc4)cc3C(=O)N([C@@H](C)CO)C[C@H]2C)cc1	1.3	-2.9	0.705	37.0
COc1ccc(NC(=O)Nc2ccc3c(c2)CC(=O)N([C@H](C)CO)C[C@@H](C)[C@@H](CN(C)Cc2ccc(C(=O)Nc4ccccc4N)cc2)O3)cc1	-1.4	nt	-0.238	-14.3
O=C(COc1ccccc1)NC(=S)Nc1cccc(NC(=O)c2ccccc2Cl)c1	-0.4	nt	nt	-20.9
C[C@@H]1CN([C@H](C)CO)C(=O)c2cccc(NS(=O)(=O)c3cn(C)cn3)c2O[C@H]1CN(C)S(=O)(=O)c1cccs1	3.7	-7.7	0.181	-2.0
COc1ccc(-c2cc(=O)c3ccc(OC)cc3o2)cc1	nt	-37.6	0.118	-66.1
O=C1COc2ccc(S(=O)(=O)NCCOc3ccccc3)cc2N1	3.8	nt	nt	0.0
CCN(CC)C(=S)C(=O)Nc1cc(C(F)(F)F)cc(C(F)(F)F)c1	-1.9	57.2	-0.468	13.0
O=C(c1ccccc1)C(Sc1nc2ccccc2[nH]1)c1ccccc1 (configuration not stated)	-0.1	nt	-0.226	-3.3
O=C(COc1ccccc1[N+](=O)[O-])Nc1cc(Cl)ccc1C(=O)O	1.9	nt	nt	8.8
Cc1cc(C)nc(NC(=S)c2ccc(NC(=O)/C=C/C(=O)O)cc2)n1	-0.8	-12.9	-0.152	2.0
C[C@@H]1CN([C@@H](C)CO)C(=O)c2cc(NC(=O)Cn3cnnn3)ccc2O[C@@H]1CN(C)Cc1ccc(-c2ccccc2)cc1	1.0	nt	0.0787	-6.8
C[C@H]1CN([C@@H](C)CO)C(=O)Cc2cc(NC(=O)Cn3cnnn3)ccc2O[C@@H]1CN(C)C(=O)NC1CCCCC1	-1.3	-10.8	0.188	-7.8
C[C@@H]1CN([C@H](C)CO)C(=O)c2cc(NC(=O)NC3CCCCC3)ccc2O[C@H]1CN(C)Cc1ccc(C(=O)O)cc1	nt	-129.0	0.051	3.5
COc1ccc(S(=O)(=O)N(C)CC(=O)Nc2cccc(C(F)(F)F)c2)cc1OC	-1.4	nt	nt	-1.5
Cc1ccc2nsnc2c1NC(=O)COc1ccc([N+](=O)[O-])cc1	-2.1	nt	nt	7.8
C[C@@H]1CN([C@H](C)CO)C(=O)Cc2cc(NC(=O)Nc3ccc4c(c3)OCO4)ccc2O[C@H]1CN(C)CC1CCCCC1	nt	24.2	-0.0253	-7.6
O=c1cc(-c2ccc(O)cc2)oc2c(C3O[C@H](CO)[C@@H](O)[C@H](O)[C@H]3O)c(O)cc(O)c12 (some centres not stated)	-0.8	-12.3	0.643	-15.8
COc1cccc(NC(=O)CSc2nnc(-c3ccccc3)n2-c2ccc(F)cc2)c1	-1.7	nt	nt	39.1
Cc1cc(C(=O)Nc2cccc3c2O[C@@H](CN(C)S(=O)(=O)c2cn(C)cn2)[C@H](C)CN([C@H](C)CO)C3=O)n(C)n1	1.6	-20.2	-0.141	-8.0
C[C@H](CO)N1C[C@H](C)[C@H](CN(C)S(=O)(=O)c2cn(C)cn2)Oc2ccc(NC(=O)Cc3cn(C)c4ccccc34)cc2CC1=O	1.4	-33.9	-0.113	1.1
C[C@@H]1CN([C@H](C)CO)C(=O)c2cc(NC(=O)CCCN(C)C)ccc2O[C@@H]1CN(C)Cc1ccncc1	nt	-13.6	-0.0327	1.7
